Screening results as filed in PubChem BioAssay.
UCH37 DUB inh = inhibitors of human UCH37 deubiquitinase, primary screen, biochemical, Ub-AMC cleavage, fluorescence; actives 0.33% (n = 330,000); AID 588478, 2011; inhibition, % (test concentration not listed); purified proteasome/UCH37; Ubiquitin carboxyl-terminal hydrolase isozyme L5 (Homo sapiens), Q9Y5K5;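 active = mean of two replicates above 20%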;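 note: 0% = compound-free wells with enzyme and 100% = wells lacking proteasome; stock transfer was 100 nL into about 20 µL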
Target sequence (Q9Y5K5 whole entry, looked up): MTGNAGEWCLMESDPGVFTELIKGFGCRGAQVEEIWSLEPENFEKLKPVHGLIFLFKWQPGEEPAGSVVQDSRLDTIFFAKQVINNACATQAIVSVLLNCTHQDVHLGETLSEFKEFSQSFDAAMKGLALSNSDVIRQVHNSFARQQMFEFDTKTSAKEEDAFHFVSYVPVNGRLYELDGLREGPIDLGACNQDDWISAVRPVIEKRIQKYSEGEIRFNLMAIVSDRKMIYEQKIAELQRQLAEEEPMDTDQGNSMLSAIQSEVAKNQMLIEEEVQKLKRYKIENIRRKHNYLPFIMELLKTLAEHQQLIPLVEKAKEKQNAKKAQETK
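Schedule: 30 min plus 25 min, room temperature / Material: human UCH37 within purified proteasomes / Technique: AMC fluorescence intensity at 355/460 nm / Buffer or medium: pH 7.4 Tris-HCl (50 mM) with ovalbumin, ATP-MgCl2, DTT / Controls: wells without proteasome as full block, compound-free enzyme plus substrate as uninhibited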
FGF22 binding = binders of human FGF22 protein, primary screen, FGF22 synaptogenesis inhibitor project, biophysical, thermal shift, single point | Fibroblast growth factor 22 (Homo sapiens), Q9HCT0 | recombinant FGF22 thermal shift, SYPRO orange fluorescence; percent of sucrose octasulfate shift, DMSO zero | calls only at 9.99 µM | actives 1.5% (n = 340,000);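 active = melting point raised past a set limit in the mean and every replicate; three in four hits are not shown here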
Target sequence (Q9HCT0 whole entry, looked up): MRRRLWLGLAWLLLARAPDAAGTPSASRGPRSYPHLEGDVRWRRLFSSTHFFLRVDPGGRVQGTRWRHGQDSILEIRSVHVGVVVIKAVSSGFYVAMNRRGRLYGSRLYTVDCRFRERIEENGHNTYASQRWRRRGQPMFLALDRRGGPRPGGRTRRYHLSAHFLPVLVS
AF4-AF9 inh = inhibitors of AF4 peptide binding to AF9, primary screen, biochemical, AlphaScreen, biotin-AF4 peptide, FLAG-AF9, single point | actives 0.47% (n = 350,000) | inhibition, % at 10 µM;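 active = every replicate reaching a set inhibition limit, whatever the replicate mean, cut at about 25% in these data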;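 note: 0% = plate neutral control median and 100% = total signal loss; the record names both 10 and 1 µM as test concentration; the first replicate is given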
Target sequence (P42568 whole entry, looked up): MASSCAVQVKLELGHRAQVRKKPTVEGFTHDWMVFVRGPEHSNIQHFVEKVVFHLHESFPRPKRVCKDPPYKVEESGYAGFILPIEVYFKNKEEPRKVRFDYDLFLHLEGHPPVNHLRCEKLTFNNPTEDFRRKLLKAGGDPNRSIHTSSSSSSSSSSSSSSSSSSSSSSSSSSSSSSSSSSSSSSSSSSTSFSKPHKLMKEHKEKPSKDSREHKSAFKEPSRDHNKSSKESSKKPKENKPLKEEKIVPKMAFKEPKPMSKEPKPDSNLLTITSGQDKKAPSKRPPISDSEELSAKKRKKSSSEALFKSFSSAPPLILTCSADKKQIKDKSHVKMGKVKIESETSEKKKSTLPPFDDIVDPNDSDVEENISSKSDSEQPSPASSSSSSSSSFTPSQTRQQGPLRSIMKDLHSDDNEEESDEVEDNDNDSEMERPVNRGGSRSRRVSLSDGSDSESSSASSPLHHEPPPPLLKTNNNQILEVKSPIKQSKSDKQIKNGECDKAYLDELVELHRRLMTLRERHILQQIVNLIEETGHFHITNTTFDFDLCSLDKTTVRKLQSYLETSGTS
A1 inh = caspase 3/7 activation in MEF A1-2A-BIM cells, primary screen, A1 inhibitor project, cell-based, luminescence, HTS; actives 0.066% (n = 330,000); caspase activation, % (no concentration beside the values); Caspase-Glo 3/7 luminescence, 3 h; percent of clofoctol response, vehicle zero;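 active = over half of replicate activation scores above 10%, or exactly half above 10 with the replicate mean above 10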;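 note: wells of about 30 µL received 50 nL stock; many hits fall short of the cut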
E coli growth = E. coli growth inhibition, primary screen, OD600; Escherichia coli growth, 23 h; hits give low values; OD600 absorbance (test concentration not listed); actives 0.21% (n = 330,000);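 active = OD600 absorbance below the run mean of sample wells minus 3.6 SD, in any replicate, cut at about 0.56 in these data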;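 note: stock transfer was 300 nL into about 60 µL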
rRNA inh HTS = reduced GFP signal of wild-type E. coli, primary screen, bacterial rRNA inhibitor project, GFP/RFP fluorescence, OD600, single point; actives 1.6% (n = 350,000); GFP signal change (wild-type ribosome), % (concentration not given with the values); E. coli WT GFP vs humanized-ribosome RFP mutants, 24 h; hits give low values; DMSO median 0, no signal -100; AID 720706, 2013;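 active = significant combined selectivity score with lowered wild-type GFP, culture density cut under 30%, mutant RFP and density less affected; inactive = any of these conditions unmet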; note: one replicate is shown; some compounds called inactive have numbers as strong as hits
Beta cell apopt = inhibitors of cytokine-induced beta cell apoptosis, primary screen, luminescence; INS-1E cytokine-induced death, ATP luminescence, 48 h; percent of positive-control rescue, neutral wells zero; protection from apoptosis, % (no concentration beside the values); actives 0.8% (n = 300,000); AID 435005, 2010;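 active = all replicates at 75% or more, or half of them and the mean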;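 note: 0% = cytokine-treated negative control wells and 100% = positive control rescue; higher means more ATP so stronger rescue from cytokine killing; wells of about 40 µL received 100 nL stock; the first replicate is given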
T cruzi repl = inhibitors of intracellular T. cruzi growth, primary screen, luminescence, NIH3T3 host cells | inhibition, % (concentration not given with the values) | AID 1885, 2009 | actives 1.4% (n = 300,000) | T. cruzi beta-gal in NIH3T3, 90 h;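 active = mean inhibition across valid replicates above about 55%, limit read from the data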;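 note: signal also drops with host cell toxicity which is not excluded here; 0% = plate median of DMSO wells and 100% = zero luminescence signal; higher percent means less beta-gal luminescence so fewer parasites; stock transfer was 50 nL into about 50 µL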
rRNA inh HTS OD600 = also measured in rRNA inh HTS; calls as there; OD600 change, %; measured here: OD600 growth;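 optical density of the mix in the first replicate; 0 = DMSO median and -100 = no signal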
rRNA inh HTS RFP = second read-out of rRNA inh HTS, no call of its own (marks repeat the call); RFP signal change, %; measured here: RFP humanized mutant strains;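 first replicate; 0 = DMSO median and -100 = no signal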
Starred values were filed as active, the others as inactive; i = inactive; . = no result given.

structure	UCH37 DUB inh	FGF22 binding	AF4-AF9 inh	A1 inh	E coli growth	rRNA inh HTS	rRNA inh HTS OD600	rRNA inh HTS RFP	Beta cell apopt	T cruzi repl
Cn1c(=O)c(=O)n(C)c2cc(S(=O)(=O)N3CCN(Cc4ccccc4)CC3)ccc21	0.6	.	.	0.7	0.664	.	.	.	-1.2	-12.6
CC(=O)N1CCN(S(=O)(=O)c2ccc(Cl)cc2F)CC1	3.8	i	-0.5	0.4	0.686	13.7	18.8	1.8	-9.0	-8.0
Cc1ccc(NC(=S)N2CCC(NC(=O)c3ccc(F)cc3)CC2)cc1	1.4	.	2.0	0.0	0.642	1.1	7.6	-2.3	2.1	-21.0
COc1ccccc1/C=N/NC(=O)CC(=O)NCc1ccccc1	.	i	-4.4	-1.1	.	14.7	6.3	3.0	.	-7.9
Cc1cc(C)n(C(C)CC(=O)Nc2ccc3c(c2)OCCO3)n1 (centres undefined)	3.0	i	-2.0	1.4	0.741	23.7	17.8	0.7	.	-5.0
Cc1cc(C)c(C#N)c(SCC(=O)CC(=O)OC(C)C)n1	-23.8	.	.	-1.5	0.775	.	.	.	-4.2	5.5
CC1CCCCC12NC(=O)N(CC(=O)OCC(=O)N(C)C1CCCCC1)C2=O (centres undefined)	0.5	i	-5.3	0.7	0.659	.	.	.	-5.5	.
COc1ccc(CCNC(=O)COC(=O)C23CC4CC(CC(Br)(C4)C2)C3)cc1	1.7	i	0.9	0.5	0.715	-23.4	-8.0	2.8	.	-7.8
Cc1cccc(OCC(=O)OCC(=O)N2CCN(C(=O)c3ccco3)CC2)c1C	5.2	i	-0.6	1.4	0.713	3.3	6.7	-3.5	1.4	-13.0
CC(C)=C1C2CCC1C1C(=O)N(NC(=O)COc3ccc(C(C)(C)C)cc3)C(=O)C21 (centres undefined)	4.6	.	.	-0.5	0.722	.	.	.	-3.6	-8.2
CCCCNC(=O)Cn1nc([N+](=O)[O-])c([N+](=O)[O-])c1C	-1.5	.	.	-0.2	0.618	.	.	.	-3.3	9.6
CC(C)(CN1CCc2ccccc2C1)NS(=O)(=O)c1ccc(Cl)cc1	1.1	i	-54.3	-0.6	0.667	-5.7	-9.4	-4.3	-3.9	13.1
COCc1nnc(NC(=O)C2CC(=O)N(CCc3ccc(F)cc3)C2)s1 (centres undefined)	0.1	i	-4.9	0.0	0.66	5.1	3.7	1.8	-4.6	-4.3
CC(=O)NC(=S)Nc1ccccc1C(=O)NC1CCCCC1	3.3	.	.	0.7	0.752	.	.	.	5.3	-7.2
O=C(CN1CCN(Cc2ccc(Cl)cc2)CC1)N/N=C/c1cccc(F)c1	.	i	-1.3	0.3	.	.	.	.	-1.6	-10.8
CCOc1ccc(N2C(=O)CC(N(CCc3ccc(OC)c(OC)c3)C(=O)/C=C/C(=O)O)C2=O)cc1 (centres undefined)	1.7	i	3.1	0.2	0.716	5.0	9.0	1.6	-9.8	-6.9
O=C(Cn1c2[n+](c3ccc(C(F)(F)F)cc31)CCCCC2)Nc1ccc(Br)cc1	2.3	.	.	-1.2	0.713	.	.	.	-2.3	5.9
O=C(NCCc1ccccc1)C1CCN(S(=O)(=O)N2CCCC2)CC1	2.2	i	5.1	0.3	0.654	3.9	0.6	-6.9	0.3	-4.4
CCOc1ccc(C(C)NC(=O)c2cccc(F)c2)cc1 (centres undefined)	0.9	.	.	0.9	0.672	.	.	.	.	-5.5
Cc1csc(NC(=O)CCCC(=O)c2ccccc2)n1	4.8	i	3.3	1.3	0.652	-3.0	5.0	-8.8	-8.3	-0.8
O=C(COC(=O)CNS(=O)(=O)c1ccc(F)c(F)c1F)Nc1ccc(OC(F)F)cc1	-18.3	i	-1.8	0.4	0.658	-1.8	9.3	8.0	-1.6	8.8
c1ccc(-n2cccc2)c(N2CCCCC2)c1	-0.7	i	-0.2	-0.2	0.68	.	.	.	1.3	-8.0
CC(=O)c1cc(-c2ccccc2)[nH]c1N1CCCC1	1.4	.	.	0.0	0.689	.	.	.	-14.6	-6.4
COc1ccc(NS(=O)(=O)c2ccc3c(c2)CCC(=O)N3)cc1O	5.3	i	-11.8	.	0.686	4.9	9.0	-0.5	.	.
O=C(CSc1nnc(-c2cccnc2)n1Cc1ccco1)Nc1cccc(O)c1	-0.2	i	-3.7	0.0	0.618	3.9	-0.3	-2.8	9.0	-18.7
CCN1CCN(c2oc(COc3ccc(Cl)cc3)nc2C#N)CC1	2.2	i	10.8	0.0	0.664	-10.6	-2.9	2.4	-5.8	23.4
Clc1ccc(-c2nnc3sc(Cc4cccs4)nn23)c(Cl)c1	2.5	.	.	-0.5	0.67	.	.	.	3.7	10.5
O=c1[nH]c(NC2CCN(S(=O)(=O)c3ccccc3C(F)(F)F)CC2)nc2c1CCCC2	1.0	i	-1.5	.	0.645	-0.3	0.1	5.9	.	9.0
CCCSc1nc(O)c(C2OC(=O)c3c2ccc(OC)c3OC)c(=O)n1C (centres undefined)	1.8	.	.	0.6	0.677	.	.	.	-4.1	-3.3
COc1ccc(C(=O)Nc2ccccc2N2CCN(C(=O)c3ccccc3)CC2)cc1Br	-3.3	i	-1.0	-0.2	0.701	1.7	-0.9	1.8	31.7	48.5

More records:
structure	UCH37 DUB inh	FGF22 binding	AF4-AF9 inh	A1 inh	E coli growth	rRNA inh HTS	rRNA inh HTS OD600	rRNA inh HTS RFP	Beta cell apopt	T cruzi repl
O=C(O)c1ccccc1SCC(=O)N1CCOCC1	2.0	i	1.0	-1.6	0.741	18.1	18.6	2.6	-13.5	-1.2
COc1ccc(C(CNC(=O)c2cc3ccccc3cc2OC)N2CCCC2)cc1 (centres undefined)	-64.7	.	.	-0.3	0.605	.	.	.	-0.5	27.9
O=C(COC(=O)C1CC2CCCC(C1)C2=O)NC(=O)c1ccccc1 (centres undefined)	3.8	i	2.2	1.1	0.657	2.8	-2.9	-1.2	6.5	.
N/C(=N\OC(=O)c1cccc(Cl)c1)c1cccnc1	-2.1	.	.	-2.2	.	.	.	.	3.4	-13.6
CCOc1cccc(C(=O)NNC(=O)CCC(=O)O)c1	0.3	i	-20.2	0.3	0.668	1.0	1.5	-0.2	-5.4	-17.5
CCC(=O)N1CCc2cc(Br)cc(S(=O)(=O)CCC(=O)N(CC)CC)c21	1.7	i	6.0	0.1	0.693	6.2	6.4	-1.3	-8.3	-9.4
O=C(NCCS(=O)(=O)N1CCN(c2ccccc2)CC1)C1CCCC1	1.7	i	-8.5	-1.3	0.592	0.3	10.0	-2.2	-2.1	-6.3
O=C(O)/C(=C\c1ccc(C(F)(F)F)cc1)c1ccc(S(=O)(=O)N2CCCC2)s1	1.1	i	1.9	-0.5	0.613	-39.9	-52.0	-14.2	-1.5	.
CC(C)CCN1CC(C(=O)N2CCN(c3ccc(F)cc3)CC2)CC1=O (centres undefined)	0.6	.	.	1.0	0.75	.	.	.	-2.2	-8.7
O=C(NC1CCN(C(=S)NCCc2ccccc2)CC1)C1CC1	3.6	i	-0.6	-0.2	0.696	14.8	7.3	3.0	-3.1	5.2
CCn1c(CC(=O)Nc2ccc(Cl)c(Cl)c2)nnc1SCc1ccc(C)cc1	1.9	.	.	-0.5	0.651	.	.	.	.	-9.1
Oc1c(C(c2cccs2)N2CCC3(CC2)OCCO3)sc2ncnn12 (centres undefined)	5.7	i	-4.2	-0.9	0.778	-2.6	-1.7	-1.5	-7.5	-5.8
CCc1cccc(NC(=O)CN(C)S(=O)(=O)c2cnc[nH]2)c1	0.4	.	.	0.1	0.695	.	.	.	-4.2	3.6
CC(=O)Oc1ccc2c(c1)C(=O)c1ccccc1C2=O	6.5	i	-1.9	-5.1	0.633	-3.1	-33.7	-0.5	-3.2	0.4
O=C(NCc1ccccc1)C(c1ccc(F)cc1)N(Cc1ccc2c(c1)OCO2)C(=O)Cn1nnc(-c2cccs2)n1 (centres undefined)	4.1	.	.	0.0	0.737	.	.	.	1.4	-1.1
O=C(O)CC(NC(=O)C(c1ccccc1)c1ccccc1)c1ccco1 (centres undefined)	2.2	.	.	-0.6	0.755	.	.	.	-0.6	-12.2
CC(C)NS(=O)(=O)c1ccc(Br)c(C(=O)OC(C)C(=O)NC2CCCCC2C)c1 (centres undefined)	2.7	i	-7.5	2.3	0.691	-11.1	-25.6	1.7	3.0	-4.4
COc1ccc2c(c1OC)C(=O)N1N=C(c3ccc(-c4ccccc4)cc3)CC21 (centres undefined)	-17.1	i	-1.7	0.1	0.658	9.1	1.1	0.5	2.0	2.0
CC(C)NC(=O)c1ccc2c(c1)S(=O)(=O)c1ccccc1C2=O	-0.7	.	.	0.2	0.671	.	.	.	1.5	-10.0
O=C(C1COc2ccccc2O1)N1CCN(S(=O)(=O)c2ccccc2)CC1 (centres undefined)	-0.5	i	-7.4	-0.2	0.632	-5.9	-4.8	-2.7	0.9	2.9
COc1cccc(OC)c1OCCOc1ccc(C(=O)c2ccccc2)cc1	2.0	i	1.1	0.1	0.729	-12.7	-17.1	5.1	-2.4	4.0
CCOC(=O)C1CCN(S(=O)(=O)c2cccc(-c3csc(C)n3)c2)CC1	0.7	.	.	0.3	0.708	.	.	.	-0.5	-4.4
C=CCC(CC=C)(NC(=O)c1ccccc1C(=O)O)c1ccccc1	-1.0	.	.	0.7	0.703	.	.	.	-4.5	-9.2
Cc1nnc(-c2ccc(Oc3ccc(Br)cc3)c([N+](=O)[O-])c2)o1	0.0	i	4.8	0.4	0.703	14.3	7.1	-7.7	0.3	2.5
COc1cccc(-c2csc(/C(C#N)=C/Nc3cc4oc5ccccc5c4cc3OC)n2)c1	.	i	1.1	1.1	.	24.9	18.2	2.0	-2.3	-8.4
O=C(C1=NOC(CNc2ncc(C(F)(F)F)cc2Cl)C1)N1CCOCC1 (centres undefined)	-0.8	.	-3.0	-0.1	0.68	1.5	-1.2	0.7	-4.6	3.4
Cc1nn(CCC#N)c2nc(C(F)(F)F)[nH]c(=O)c12	2.3	.	.	0.2	0.677	.	.	.	1.7	-7.2
Cc1ccc2nc3n(c(=O)c2c1)-c1cc(Cl)ccc1C(=O)NC3Cc1ccccc1 (centres undefined)	.	i	-10.2	-0.2	.	12.1	-0.9	-1.5	4.5	.
Cc1nn(-c2ccccc2)c(N)c1N=Nc1ccc2ccccc2c1	8.5	.	.	0.6	0.738	.	.	.	-9.7	-26.3
CC(Oc1ccccc1Cl)C(=O)Nc1ccccc1C(=O)N1CCOCC1 (centres undefined)	-2.1	i	-0.8	1.0	0.719	9.0	2.0	0.7	-2.6	2.7
CC(C)NCC(=O)NC12CC3CC(CC(C3)C1)C2	2.7	.	.	0.2	0.742	.	.	.	-4.8	-0.1

A portion of the library (hit frequency here may not be typical).
